Assay outcomes (PubChem)
Yeast UUG start – modulators of start codon recognition fidelity in yeast | S. cerevisiae UUG-firefly luciferase reporter, luminescence/redox ratio | activity score, % at 18.7 µM | 350,000 compounds, 0.13% hits | AID 602363;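 active = replicate mean at a twofold rise or more, about +100% in these data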;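 also: firefly luciferase made from a UUG start codon reports start codon fidelity; reporter light over untreated wells divided by growth signal over untreated wells; some hits fall short of that in this replicate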
Rce1 inh – inhibitors of yeast Ras-converting enzyme | Q03530 | yeast membranes, quenched prenylated peptide cleavage fluorescence | calls only | 290,000 compounds, 0.27% hits;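 active = fall in fluorescence gain of 50% or more versus controls, with final raw signal at or below 3038400; inconclusive = same 50% fall but final raw signal above 3038400; inactive = fall in fluorescence gain under 50%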;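 also: plate controls were neutral control wells for no effect and wells lacking membranes for full effect; tested at 10 µM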
Target sequence (Q03530 whole entry, looked up): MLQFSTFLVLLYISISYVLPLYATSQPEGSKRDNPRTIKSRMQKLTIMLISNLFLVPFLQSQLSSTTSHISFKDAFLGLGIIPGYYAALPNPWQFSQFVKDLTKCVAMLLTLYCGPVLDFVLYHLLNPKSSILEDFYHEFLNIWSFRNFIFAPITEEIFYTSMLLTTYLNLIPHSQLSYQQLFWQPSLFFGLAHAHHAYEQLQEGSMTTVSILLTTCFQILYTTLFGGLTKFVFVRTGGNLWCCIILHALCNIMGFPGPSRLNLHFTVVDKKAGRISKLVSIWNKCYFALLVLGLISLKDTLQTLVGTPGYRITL
Env fusion inh – blocks HIV Env-driven cell-cell fusion | HeLa-JRFL Env/CEM21 cell fusion, luciferase | inhibition, % at 12.3 µM | 360,000 compounds, 1.1% hits;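 active = mean replicate inhibition score of at least 50 and every replicate individually at or above 50; inconclusive = only one of the two criteria met; inactive = mean below 50 and not all replicates reaching 50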;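 also: 0% = plate neutral controls and 100% = maraviroc near 300 nM; one replicate is shown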
MT1-MMP act inh – MT1-MMP (human) activation inhibition; HT1080 RFP-PRO-GFP cells, GFP/RFP ratio fluorescence, overnight; percent of plate control window, DMSO zero; GFP/RFP ratio change, % at 20 µM; 360,000 compounds, 0.061% hits;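 active = GFP/RFP ratio change of at least 30% with cell ATP level not reduced by more than half and red fluorescence within 50% of control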; also: strong numbers were not always called active
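Assay system: HT1080 RFP-PRO-GFP cells. Benchmarks: DMSO vehicle wells and RFP-L50D-GFP reporter cell wells. Times: overnight cell settling, then overnight compound exposure, 37 °C, 5% CO2. Compound: 20 µM single dose, 1% DMSO. Read-out basis: GFP/RFP fluorescence ratio.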
eIF4H FP inh – inhibitors of RNA binding by human eIF4H. AID 2012. eIF4H fluorescence polarization binding assay. 290,000 compounds, 0.94% hits. inhibition, % at 35 µM. Q15056;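 active = 50% or more with normal probe brightness, or confirmed in later tests; inconclusive = above 50% with abnormal brightness, or retests that disagree; inactive = below 50% or failed in later tests; about a fifth of its hits are not listed in these tables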;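 also: calls also rest on retests at 20 µM and on dose response follow-up; 0% = protein and probe with vehicle and 100% = probe without protein; strong numbers were not always called active; many hits fall short of the cut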
CSC inhib – cancer stem cell inhibition; 300,000 compounds, 1.1% hits; AID 2717; inhibition, % at 7.5 µM; cancer stem cell-like cells viability, luminescence;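 active = mean at 75% or more and at least half the replicates too; inconclusive = mean and replicates disagree; tested in HMLE shEcad cells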;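 also: 0% = median of negative and 100% = median of positive control wells; the first replicate is given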
PABP polyA inh – PABP-poly(A) binding inhibition. P11940. PABP-poly(A) RNA binding, fluorescence polarization. inhibition, % at 35 µM. 290,000 compounds, 1% hits;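 active = 50% or more with normal probe brightness, or confirmed in later tests; inconclusive = above 50% with abnormal brightness, or retests that disagree; inactive = below 50% or failed in later tests; about a fifth of its hits are not listed in these tables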;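 also: calls also rest on retests at 20 µM and on dose response follow-up; controls were probe without protein and protein plus probe with vehicle; some compounds called inactive have numbers as strong as hits; many hits fall short of the cut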
MT1-MMP act inh RFP – further read-out of MT1-MMP act inh, marked with its call; RFP signal change, %; measured here: RFP expression control read;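 0 = vehicle wells; hits needed this value within 50% of zero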
An asterisk follows results filed as active; i = inactive; ? = inconclusive; nt = no result given; & = joins results of further samples; [ ] = remark or other dose.

The line under a structure holds: MT1-MMP act inh RFP | CSC inhib | MT1-MMP act inh | Rce1 inh | eIF4H FP inh | Yeast UUG start | PABP polyA inh | Env fusion inh
> Cc1ccc(OCCNS(=O)(=O)c2ccc(N3CCCC3=O)cc2)cc1
→ -15 | -1 | -3 | i | -4 | -7 | -1 | nt
> COc1ccc(OC)c(N=CC2=C(O)CC(C)(C)CC2=O)c1
→ 2 | 4 | 5 | i | 4 | nt | 14 | nt
> COc1ccc(-c2nnc(Nc3ccc(OC)c(C(=O)N4CCCCC4)c3)c3ccccc23)cc1
→ 0 | 6 | -2 | i | -8 | 18 | -1 | 6
> COc1cccc(NC(=O)C2C3C=CC(C3)C2C(=O)O)c1 (stereo unspecified)
→ 1 | -2 | 1 | nt | -6 | -21 | -6 | 31
> O=S(=O)(c1ccccc1)N1CCN(C/C=C/c2ccccc2)CC1
→ -5 | -5 | 3 | i | 11 | -16 | 2 | -15
> O=C(NC1CCCC1)c1cc2nc(-c3ccccc3)cc(-c3ccccc3)n2n1
→ -8 | 23 | -1 | i | 15 | -19 | -7 | 18
> CC12CCC(C/C1=N/NC(=O)Nc1ccccc1)C2(C)C (stereo unspecified)
→ -5 | 58 | 0 | i | 4 | nt | -16 | 26
> Cc1cc(C)nc(N(C#N)Cc2ccc([N+](=O)[O-])cc2)n1
→ 4 | -7 | -1 | i | 9 | nt | 3 | 9
> COc1ccccc1C(C)N(C)Cc1nc(COc2ccccc2)no1 (stereo unspecified)
→ 3 | nt | 0 | i | -8 | nt | -2 | 3
> Cc1c(CC(=O)N2CCN(C(=O)C3COc4ccccc4O3)CC2)c(=O)oc2cc(O)ccc12 (stereo unspecified)
→ -8 | 62 | 1 | i | -2 | 6 | -6 | 0
> Fc1ccc(SCCc2ccncc2)cc1
→ -4&-6 | -22&-7 | 3&1 | i | -3&-4 | -11 | -11&-1 | -55&-13
> COc1cc(/C=C(/C#N)c2ccc(F)cc2)ccc1OCc1ccc(C(=O)O)o1
→ -1 | 2 | 11 | i | -12 | -10 | 2 | -54
> CN1OC[C@@H]2C(=O)N3CCc4c([nH]c5ccccc45)[C@@H]3C[C@@H]21
→ 6 | nt | 1 | nt | nt | -20 | nt | -3
> CC(=O)N1CCOCCOCCOCC1
→ 1 | -11 | -9 | i | -2 | nt | -4 | 6
> O=S(=O)(Nc1cccnc1)c1cccs1
→ 0 | -7 | -2 | i | -1 | nt | 0 | -13
> CCn1cc(C(=O)Nc2ccc(C)c([N+](=O)[O-])c2)cn1
→ 7 | 3 | 6 | i | 0 | -6 | 6 | nt
> CC1CCc2nc(NC(=O)C3CC3)sc2C1 (stereo unspecified)
→ -3 | -16 | -1 | i | 0 | nt | 2 | nt
> CC(CCc1ccccc1)NC(=O)c1cccc(F)c1 (stereo unspecified)
→ 3 | -4 | 1 | i | -6 | 2 | 6 | -9
> CCn1c(O)c(N=NC(=O)CNC(=O)c2ccco2)c2ccccc21
→ 3 | 7 | 1 | i | -7 | nt | 12 | 10
> O=P(Cc1ccccn1)(c1ccccc1)c1ccccc1
→ 1 | -15 | -2 | i | -4 | nt | -7 | nt
> O=C(NCC1CCCO1)c1ccc2c(c1)N(Cc1ccccc1)CCS2 (stereo unspecified)
→ 1 | -10 | -1 | i | 0 | 13 | 6 | 15
> N#CCCn1cc(C(=O)Nc2ccccn2)c(-c2ccccc2)n1
→ 4 | -18 | -1 | i | -11 | -20 | 0 | 7
> Cc1ccc(S(=O)(=O)N(CC(=O)Nc2cccc(C)c2C)C(=O)N2CCN(C)CC2)cc1
→ -1 | nt | 0 | i | nt | 0 | nt | -38
> CCOC(=O)Cn1cc(C(=O)c2cccs2)c2ccccc21
→ 2 | -8 | 11 | i | 2 | -4 | 2 | -65
> Cc1cccc(NC(=O)c2ccc(NC(C)c3ccccc3)c([N+](=O)[O-])c2)n1 (stereo unspecified)
→ -12 | 7 | -5 | i | 3 | -10 | 8 | 1
> O=c1c2ccccc2nc(CSc2ncnc3nc[nH]c23)n1-c1cccc(C(F)(F)F)c1
→ -1 | -2 | -1 | i | 1 | -22 | 0 | nt
> COc1cccc(CNC(=O)CCc2nc3cc(S(=O)(=O)N4CCOCC4)ccc3n2C)c1
→ 4 | -12 | 1 | i | nt | -2 | nt | nt
> Cc1ccc(S(=O)(=O)CCC(=O)OCC(=O)N2CCN(c3ccccc3)CC2)cc1
→ 2 | -9 | 2 | i | nt | -14 | nt | nt
> CCc1cccc(NC(=O)Cc2ccc(OC)c(OC)c2)c1
→ -18 | -10 | -3 | i | -4 | nt | 23 | ?
> O=C(COc1cccc(Oc2ccccc2)c1)Nc1ncccn1
→ 2 | 25 | 0 | i | 0 | nt | 0 | nt
> COc1cc(C(C)=O)ccc1OCC(O)CNCC1(N2CCCCC2)CCCCC1 (stereo unspecified)
→ 5 | -12 | 3 | i | 5 | 4 | 28 | 27
> O=C(O)C1C(C(=O)O)C1(c1ccccc1)c1ccccc1 (stereo unspecified)
→ 4 | 2 | 5 | i | 0 | nt | 4 | -2
> Cc1nc(NC(=O)CSC2=NCCS2)sc1C(=O)N(C)C
→ -2 | -1 | -6 | i | -6 | -14 | 3 | 19
> C#CCOCCOCCOCCNc1nc(OC)nc(N2CCN(C(=O)[C@H](CCC(=O)O)n3cc(C(N)CO)nn3)CC2)n1 (stereo partly specified)
→ 3 | 23 | -2 | nt | nt | 8 | nt | 3
> CC(C)CCNCC(=O)NC(c1ccccc1)c1ccccc1
→ 3 | -2 | 1 | i | -7 | -12 | -5 | -5
> CCCCn1c(=O)c(F)cn(Cc2ccc(OC)c([N+](=O)[O-])c2)c1=O
→ 0 | -7 | -4 | i | -6 | nt | -10 | -9
> O=C(Nc1nnc([C@@H]2C[C@H](O)[C@@H](CO)O2)s1)Nc1cccc2c1CCCC2
→ 3 | nt | -1 | nt | nt | -20 | nt | -13
> O=C(COc1ccc(S(=O)(=O)N2CCOCC2)cc1)Nc1ccc2c(c1)OCCO2
→ -1 | -11 | 3 | i | 6 | 12 | -8 | nt
> O=C(NCCc1c[nH]c2ccccc12)c1cnc2sccn2c1=O
→ 2 | -4 | 2 | i | 3 | -13 | 8 | -74
> COc1ccc(-c2cc(C(=O)Nc3cccc(Cl)c3)no2)cc1
→ 0 | 4 | -3 | i | 0 | -9 | 0 | -102
> COC(=O)c1ccccc1NS(=O)(=O)c1ccc2c(c1)oc(=O)n2C
→ -4 | 0 | 0 | i | -7 | 3 | -3 | 0
> COc1ccc(C2c3c(-c4ccccc4O)n[nH]c3C(=O)N2CCc2ccc(OC)c(OC)c2)cc1 (stereo unspecified)
→ -8 | -17 | 4 | i | 2 | -14 | 18 | 91*
> CN1CCN(c2ccccc2NC(=O)c2ccc(-c3cccc(Cl)c3)o2)CC1
→ -5 | 40 | 2 | i | -3 | -11 | 14 | 0
> N#C/C(=C\c1c(N2CCCCCC2)nc2ccccn2c1=O)C(=O)NC1CCS(=O)(=O)C1 (stereo unspecified)
→ 8 | -2 | 1 | i | 3 | -6 | 0 | nt
> Cc1ccc(C)c2[nH]c(=O)c(CCNS(=O)(=O)c3ccccc3)cc12
→ 1 | -7 | -1 | i | 1 | -16 | -14 | 0
> CCOc1ccc(CCNC(=O)c2ccc(CS(=O)Cc3ccc(Cl)cc3)o2)cc1OCC (stereo unspecified)
→ -3 | -10 | 5 | i | -8 | 11 | -2 | 11
> Nc1ncnc(Nc2ccc(S(N)(=O)=O)cc2)n1
→ 0 | -12 | 2 | i | -4 | -17 | 9 | -11
> O=C(CC1CCCC1)Nc1ccc(Cl)c(S(=O)(=O)N2CCOCC2)c1
→ -19 | -10 | 3 | nt | nt | -6 | nt | 6
> Cc1ccc(NC(=O)CCn2nnc3ccccc32)c(C)c1
→ -2 | -6 | -1 | i | -2 | nt | 33 | 7
> CCOc1ccc(NC(=O)c2cccc(NC(=O)c3ccccc3)c2)cc1
→ -2 | 10 | 0 | i | -1 | -11 | -9 | -20
> CCC(=O)N1CCCc2cc(S(=O)(=O)N3CCN(c4ncccn4)CC3)ccc21
→ -10 | nt | 2 | i | -7 | -13 | -17 | 10
> CC(=O)c1c(C)[nH]c(C(=O)OCc2nnc(-c3ccc([N+](=O)[O-])cc3)o2)c1C
→ -11 | 3 | 2 | nt | nt | -5 | nt | nt
> COc1cccc(CN2CCCCC2C(=O)O)c1 (stereo unspecified)
→ 2 | 10 | 2 | i | 2 | -10 | -1 | 7
> COc1ccc(C2Nc3ccccc3C(=O)N2Cc2ccccc2)cc1CSc1ccccn1 (stereo unspecified)
→ -11 | 1 | -4 | i | -4 | -16 | -4 | nt
> COc1ccc(NS(=O)(=O)c2cccc3nsnc23)cc1Cl
→ -3 | -19 | 2 | i | -6 | -12 | -14 | 1
> O=C(NNC1=Nc2ccccc2SC1)c1ccc(Cl)cc1
→ nt | 45 | nt | i | 5 | -17 | 6 | 61*
> Cc1c(C(=O)N(C)Cc2cccc(F)c2)oc2c(Cl)cccc12
→ 2 | 11 | -1 | i | -19 | -13 | 0 | -3
> CC1CN(C(=O)c2cc(COc3c(F)cccc3F)on2)CCN1C (stereo unspecified)
→ 2 | 4 | 1 | i | 8 | -7 | 10 | 0
> CCN(c1ccc(F)cc1)S(=O)(=O)c1cccc2nsnc12
→ -1 | -1 | -5 | i | 1 | -7 | -9 | -1
> O=C(c1cc(COc2ccc(F)c(F)c2)on1)N1CCOCC1
→ 0 | 17 | -2 | i | 6 | -5 | -2 | -21

Other records follow.
The line under a structure holds: MT1-MMP act inh RFP | CSC inhib | MT1-MMP act inh | Rce1 inh | eIF4H FP inh | Yeast UUG start | PABP polyA inh | Env fusion inh
> O=C(CCCC(=O)NCC1CCCO1)NCC1CCCO1 (stereo unspecified)
→ 7 | -10 | -1 | i | -8 | -2 | -4 | nt
> COC(=O)c1cc(OC)c(OC)cc1NC(=O)CSc1nnc(-c2cccnc2)n1C
→ -4 | 10 | 0 | i | 0 | 3 | -6 | -17
> O=c1c2ccccc2nnn1CCc1ccccc1
→ 4 | nt | 9 | nt | nt | -35 | nt | -14
> C[C@@H]1CN([C@H](C)CO)C(=O)c2cc(Br)cnc2O[C@@H]1CN(C)Cc1cncnc1
→ 2 | nt | 0 | nt | nt | -14&-2 | nt | -3[16.7 µM]
> CN1C2CCC1CC(OC(c1ccccc1)c1ccccc1)C2 (stereo unspecified)
→ -5 | 29 | -6 | i | -12 | -12 | 5 | 9
> C#CCNC(=O)C1=C[C@@H](C2CC2)[C@H](CCCO)[C@@H](OCC)O1
→ 1 | -6 | -1 | i | 4 | 2&-4 | 1 | -10[16.7 µM]
> Cn1c2cc(C#N)sc2c2cnn(Cc3ccc(F)cc3)c(=O)c21
→ -7 | -8 | -1 | nt | nt | -3 | nt | 3
> CCOc1cc(/C=C(/NC(C)=O)C(=O)O)cc(Cl)c1OCc1ccc(Br)cc1
→ 5 | 1 | 4 | i | -7 | 6 | 0 | -7
> Cc1ccc(Cl)c(OCCCCN(C)Cc2ccccc2)c1
→ -3 | 35 | -2 | i | 9 | -20 | 4 | -13
> O=[N+]([O-])c1ccc(-n2nnnc2-c2ccccc2)c([N+](=O)[O-])c1
→ -9 | 63 | -15 | i | -11 | -17 | -4 | -9
> CC(=O)c1sc(-c2ccccc2)nc1C
→ 5 | 1 | -6 | i | 4 | nt | 6 | -19
> O=C(CCNC(=O)c1ccccc1)OCC(=O)c1cccc(Cl)c1
→ -3 | 4 | -5 | i | 5 | nt | 7 | 7
> CCCCc1cc(=O)oc2cc(OCC(=O)N(CC)CC)ccc12
→ 3 | -5 | 4 | i | 5 | 3 | -12 | -3
> COc1ccc(CNC(=O)c2sc3nc4c(c(C(F)(F)F)c3c2N)CCC4)cc1OC
→ -13 | -1 | -8 | i | 1 | -13 | 9 | 26
